Screening results from PubChem.
FPR = FPR binders displacing fluorescent formyl peptide, primary screen, U937-FPR cells, fMLFK-FITC, flow cytometry (AID 362); U937-FPR cells, fMLFK-FITC displacement, flow cytometry; hits give high values; test concentration not given here; most inactive calls were filed without a number and no value below 0 was filed; inhibition, %; hit rate 1% among 4,300;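 active = inhibition of labelled peptide binding to the formyl peptide receptor of at least 65%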;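 note: plate controls were buffer control wells for no effect and unlabeled fMLFF blocking peptide for full effect; higher means less cell fluorescence so more probe displaced; part of the set was picked by virtual screening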
* hit, by the source's call; i = inactive. This is a subset; rates above refer to the full screens.

CC1C/C(=C\c2ccc3nccnc3c2)C(=O)/C(=C/c2ccc3nccnc3c2)C1 (stereo unspecified)
  FPR: i

CCc1c(C)c(C#N)c2nc3ccccc3n2c1N1CCOCC1
  FPR: i

COc1ccc(S(=O)(=O)NCC2CCC(C(=O)NC3CCCCCC3)CC2)cc1 (stereo unspecified)
  FPR: i

CCOC(=O)c1c(NC(=O)C2CCCCC2C(=O)O)sc(C)c1-c1ccc(C(C)(C)C)cc1 (stereo unspecified)
  FPR: 29.4

COc1ccc(C2C(C(=O)OCC(C)C)=C(C)NC3=C2C(=O)CC(c2ccccc2)C3)cc1OC (stereo unspecified)
  FPR: i

CCOc1cc(C2C(C(=O)OC(C)CC)=C(C)NC3=C2C(=O)C(C(=O)OC)C(C)C3)ccc1O (stereo unspecified)
  FPR: 3.5

CCOC(=O)C1=C(C)NC2=C(C(=O)C(C(=O)OC)C(C)C2)C1c1ccc(OC(C)=O)c(OCC)c1 (stereo unspecified)
  FPR: 11.8

Cc1c(O)ccc2c(=O)c(Oc3ccccc3)c(C(F)(F)F)oc12
  FPR: 0.2

O=C(O)CSc1nnnn1C1CCCCC1
  FPR: i

COc1ccc(C2(CNC(=O)c3ccc(OC)cc3OC)CCOCC2)cc1
  FPR: 7.6

COC(=O)c1sc2nc(C)cc(C(F)(F)F)c2c1N
  FPR: i

CC(C)CC(C(=O)Nc1nccs1)N1C(=O)c2ccccc2C1=O (stereo unspecified)
  FPR: 32.1

CCOc1ccc2c(c1)N(C(=O)CN1C(=O)CCC1=O)C(C)(C)C=C2C
  FPR: i

CCCCN(CC)S(=O)(=O)N1CCC(C(=O)NCCCN2CCOCC2)CC1
  FPR: i

COc1cc(C2NC(=O)NC(C)=C2C(=O)OC2CCCCC2)cc(Br)c1O (stereo unspecified)
  FPR: i

CC(C)Cn1c2c(c(=O)[nH]c1=O)C(NC(=O)c1ccccc1)(C(F)(F)F)C(=O)N2 (stereo unspecified)
  FPR: 13.4

COc1ccc(C2OCC3(COC(=O)Nc4ccccc4)C(C)C=C(C)C2C3C)cc1 (stereo unspecified)
  FPR: i

CCOc1ccc(C2C(C(=O)OCCOC)=C(C)NC3=C2C(=O)C(C(=O)OC)C(C)C3)cc1 (stereo unspecified)
  FPR: 16.1

COCCOC(=O)C1=C(C)NC2=C(C(=O)C(C(=O)OC)C(C)C2)C1c1cc(Cl)c(O)c(OC)c1 (stereo unspecified)
  FPR: i

O=C(O)C1CCCCC1C(=O)NCc1cccnc1 (stereo unspecified)
  FPR: i

COC(=O)c1ccc(C2C3=C(CC(C)(C)CC3=O)Nc3ncnn32)cc1 (stereo unspecified)
  FPR: i

COc1cc(C2C3=C(CC(C)(C)CC3=O)OC3=C2C(=O)CC(C)(C)C3)ccc1OCC(=O)Nc1ccc2c(c1)OCO2
  FPR: i

CCCOc1ccc(C2C3=C(CC(C)(C)CC3=O)N(CC(=O)O)C3=C2C(=O)CC(C)(C)C3)cc1
  FPR: i

Cc1cc(C)c(S(=O)(=O)NCC2CCC(C(=O)NC3CCCCC3)CC2)c(C)c1 (stereo unspecified)
  FPR: i

COCCCNC(=O)C1CCC(CNS(=O)(=O)c2ccc(Cl)cc2)CC1 (stereo unspecified)
  FPR: i

CCCCCc1c(C)c(C#N)c2nc3ccccc3n2c1N1CCN(C)CC1
  FPR: 4.9

CCCCCOC(=O)C1=C(C)NC(=O)NC1c1ccc(OCC)cc1 (stereo unspecified)
  FPR: i

COc1ccc(OC)c(C2NC(=O)NC(C)=C2C(=O)OC2CCCCCC2)c1 (stereo unspecified)
  FPR: i

COc1ccc(Cl)cc1Nc1ncnc2sc3c(c12)CCCC3
  FPR: i

COc1ccc(Oc2c(C(F)(F)F)oc3c(CN4CCCCC4)c(O)ccc3c2=O)cc1
  FPR: i

CN(C)Cc1c(O)ccc2c(=O)c(-c3cccc4ccccc34)c(C(F)(F)F)oc12
  FPR: i

O=C(CSc1nc2ccccc2c(=O)n1CC1CCC(C(=O)NCCc2ccccc2)CC1)NC1CCCC1 (stereo unspecified)
  FPR: i

CCOc1ccc(CCNC(=O)c2cn(CC(C)C)c(=O)c3c2c2ccccc2n3C)cc1OCC
  FPR: 23.6

CCCC1=C(C(=O)OCC)C(c2cc(OC)ccc2OC)n2ncnc2N1 (stereo unspecified)
  FPR: i

COC(=O)C1C(=O)C2=C(CC1C)NC(C)=C(C(=O)OC1CCCCC1)C2c1cccs1 (stereo unspecified)
  FPR: 10.7

COc1ccc2c(c1)C(C)=CC(C)(C)N2C(=O)CN1C(=O)CCC1=O
  FPR: 17.4

O=C(NC1(C(F)(F)F)C(=O)Nc2c1c(=O)[nH]c(=O)n2-c1ccc(F)cc1)c1cccs1 (stereo unspecified)
  FPR: i

COc1cc2c(C(=O)N3CCCCC3)cn(CC(C)C)c(=O)c2cc1OC
  FPR: i

COC(=O)C1C(=O)C2=C(CC1C)NC(C)=C(C(=O)OC(C)C)C2c1cccc(O)c1 (stereo unspecified)
  FPR: i

COc1ccc(C2CC(=O)N(C)C3=C2C(=O)CC(C)(C)C3)cc1 (stereo unspecified)
  FPR: i

In a second layout: 6 of the compounds above
structure | FPR
CN(C)Cc1c(O)ccc2c(=O)c(-c3cccc4ccccc34)c(C(F)(F)F)oc12 | i
O=C(CSc1nc2ccccc2c(=O)n1CC1CCC(C(=O)NCCc2ccccc2)CC1)NC1CCCC1 (stereo unspecified) | i
CCOc1ccc(CCNC(=O)c2cn(CC(C)C)c(=O)c3c2c2ccccc2n3C)cc1OCC | 23.6
CCCC1=C(C(=O)OCC)C(c2cc(OC)ccc2OC)n2ncnc2N1 (stereo unspecified) | i
COC(=O)C1C(=O)C2=C(CC1C)NC(C)=C(C(=O)OC1CCCCC1)C2c1cccs1 (stereo unspecified) | 10.7
COc1ccc2c(c1)C(C)=CC(C)(C)N2C(=O)CN1C(=O)CCC1=O | 17.4

Later entries.
CC1CCN(S(=O)(=O)c2cn(CC(=O)NCC3COc4ccccc4O3)c(=O)c3ccccc23)CC1 (stereo unspecified)
  FPR: 2.6

COc1cc(C2C3=C(CC(C)(C)CC3=O)OC3=C2C(=O)CC(C)(C)C3)ccc1OCc1ccc(F)cc1
  FPR: 0.4

Cc1ccc(OCC(=O)Oc2cccc(N3C(=O)C4C5CCC(C5)C4C3=O)c2)cc1C (stereo unspecified)
  FPR: i

O=C(C1CCC(CNS(=O)(=O)c2ccc(F)cc2)CC1)N1CCCCC1 (stereo unspecified)
  FPR: i

COCc1[nH]nc2c1C(c1cccs1)C(C#N)=C(N)O2 (stereo unspecified)
  FPR: 64.8

CCOC(=O)c1cccc(NC(=O)C(NS(=O)(=O)c2ccc3c(c2)CCN3C(C)=O)C(C)C)c1 (stereo unspecified)
  FPR: i

CCCOC(=O)c1c(NC(=O)C2C3CCC(C3)C2C(=O)O)sc(C)c1-c1ccc(F)cc1 (stereo unspecified)
  FPR: 56.5

COc1ccc(C2C(C(=O)N3CCC(C)CC3)c3ccccc3C(=O)N2C)cc1 (stereo unspecified)
  FPR: 32.8

COc1ccc2c(=O)c(Oc3ccccc3)c(C(F)(F)F)oc2c1OC
  FPR: 35.3

C=C(C)Cn1c(SCC(N)=O)nc2c(c1=O)C1(CCCC1)Cc1ccccc1-2
  FPR: 19.2

CCCCOc1ccccc1C1C(C(=O)OCCC)=C(C)NC2=C1C(=O)C(C(=O)OC)C(C)C2 (stereo unspecified)
  FPR: i

CC(C)(C)OC(=O)C1C(=O)CC(C)(O)C(C(=O)OC(C)(C)C)C1/C=C/c1ccccc1 (stereo unspecified)
  FPR: 8.4

CC1(C)CC(=O)C2=C(C1)OC(N)=C(C#N)C2c1ccc(C2C(C#N)=C(N)OC3=C2C(=O)CC(C)(C)C3)cc1 (stereo unspecified)
  FPR: i

CCOC(=O)C1=C(C)NC2=C(C(=O)C(C(=O)OC)C(C)C2)C1c1cccc(Oc2ccccc2)c1 (stereo unspecified)
  FPR: 5.2

CCSCCOC(=O)C1=C(C)NC2=C(C(=O)C(C(=O)OC)C(C)C2)C1c1ccc(OC)cc1 (stereo unspecified)
  FPR: 37.8

Cn1c2ccccc2c2c(C(=O)N3CCN(c4ccccc4F)CC3)cn(C3CCCC3)c(=O)c21
  FPR: i

O=C(O)c1ccc([N+](=O)[O-])c2c1NCC1CC=CC21 (stereo unspecified)
  FPR: i

CCCOC(=O)C1=C(C)NC2=C(C(=O)C(C(=O)OC)C(C)C2)C1c1ccc(C)s1 (stereo unspecified)
  FPR: 9.7

COc1ccccc1-c1c(C(F)(F)F)oc2cc(OCc3cccc(Cl)c3)ccc2c1=O
  FPR: i

COc1ccc(C(C(=O)NC2CCCCC2)N2CC(C)CC(C)C2)cc1 (stereo unspecified)
  FPR: i

CCC(C)(C(=O)NC1CCCCC1)N(Cc1ccco1)C(=O)C1CCC(=O)N1 (stereo unspecified)
  FPR: i

COc1cc(C2C3=C(CC(C)(C)CC3=O)OC3=C2C(=O)CC(C)(C)C3)ccc1OCc1cccc(C)c1
  FPR: 6.9

CCc1c(C)c(C#N)c2nc3ccccc3n2c1N1CCN(C2CCCC2)CC1
  FPR: i

COc1ccc(C2(C(=O)Nc3ccc(C)c(C)c3)CCCC2)cc1OC
  FPR: 11.5

COC(=O)C1C(=O)C2=C(CC1C)NC(C)=C(C(=O)OCCOC(C)C)C2c1ccc(OC)c(O)c1 (stereo unspecified)
  FPR: 50.6

COc1cc(C2C3=C(CC(C)(C)CC3=O)OC3=C2C(=O)CC(C)(C)C3)cc(Br)c1OC
  FPR: 21.4

CC(C)Cn1cc(C(=O)NCc2cccnc2)c2c3ccccc3n(C)c2c1=O
  FPR: 3.1

COc1cc(/C=C2/C(=O)NN(c3ccc(F)cc3)C2=O)ccc1Oc1ccc([N+](=O)[O-])cc1C(F)(F)F
  FPR: i

CC1(C)CC(=O)C=C(NCCO)C1
  FPR: i

C=CCc1c(Cl)nc(C)nc1NCCO
  FPR: 4.3

CCOc1ccc2c(c1)C(C)CC(C)(C)N2C(=O)Nc1ccc(Cl)cc1 (stereo unspecified)
  FPR: 13.3

CCCCNS(=O)(=O)c1ccc(F)c(C(=O)O)c1F
  FPR: i

COC(=O)c1cc(C(=O)OC)cc(N2C(=O)C3C4C=CC(C4)C3C2=O)c1 (stereo unspecified)
  FPR: i

COC(=O)C1C(=O)C2=C(CC1C)NC(C)=C(C(=O)OC(C)C)C2c1cc(OC)ccc1OC (stereo unspecified)
  FPR: 13.7

COc1ccc(CCNC(=O)C2CCC(CNS(=O)(=O)c3ccccc3)CC2)cc1OC (stereo unspecified)
  FPR: 21.2

CCOC(=O)c1cc2c(=O)n3ccccc3nc2n(C2CCCCC2)c1=NC(=O)c1ccc(OC)cc1
  FPR: i

COc1cc2c(C(=O)N3CCN(C)CC3)cn(CC(C)C)c(=O)c2cc1OC
  FPR: i

CCCOc1ccc(C2NC(=O)NC(C)=C2C(=O)OC2CCCCCC2)cc1 (stereo unspecified)
  FPR: i

O=C(COc1cccc(N2C(=O)C3C4C=CC(C5CC45)C3C2=O)c1)c1ccc(F)cc1 (stereo unspecified)
  FPR: 0.7

CCOC(=O)c1c(-c2ccc(OCC)cc2)csc1NC(=O)C1CCCCC1C(=O)O (stereo unspecified)
  FPR: 34.2

Three records drawn at random from those above, as already listed:
Cc1c(O)ccc2c(=O)c(Oc3ccccc3)c(C(F)(F)F)oc12
  FPR: 0.2

CCOc1ccc(C2C(C(=O)OCCOC)=C(C)NC3=C2C(=O)C(C(=O)OC)C(C)C3)cc1 (stereo unspecified)
  FPR: 16.1

COc1cc(C2C3=C(CC(C)(C)CC3=O)OC3=C2C(=O)CC(C)(C)C3)cc(Br)c1OC
  FPR: 21.4

Next section.
CC1(C)CC(=O)C2=C(C1)Nc1nc(C(F)(F)F)nn1C2c1cccc(F)c1 (stereo unspecified)
  FPR: 5.3

COc1ccc(NC(=O)C(NS(=O)(=O)c2ccc3c(c2)CCN3C(C)=O)C(C)C)cc1 (stereo unspecified)
  FPR: i

COCCOC(=O)C1=C(C)NC2=C(C(=O)C(C(=O)OC)C(C)C2)C1c1ccc(C(F)(F)F)cc1 (stereo unspecified)
  FPR: 12.0

CC1=C\C(O)CC(=O)Cc2nc(co2)C(=O)NC(C)C(=O)OC(C(C)C)C(C)/C=C/C(=O)NC\C=C\1 (stereo unspecified)
  FPR: 1.3

CCOC(=O)c1c(NC(=O)C2C3C=CC(CC3)C2C(=O)O)sc2c1CC(C)CC2 (stereo unspecified)
  FPR: 37.2

CCC(C)OC(=O)C1=C(C)NC2=C(C(=O)C(C(=O)OC)C(C)C2)C1c1ccc(C)c([N+](=O)[O-])c1 (stereo unspecified)
  FPR: 8.0

O=C1C2C3C=CC(C2C(=O)N1c1ccccc1)C1C2C(=O)N(c4ccccc4)C(=O)C2C31 (stereo unspecified)
  FPR: i

COc1ccc(C2(C(=O)Nc3ccc(C(C)=O)cc3)CCCC2)cc1OC
  FPR: i

CCOc1cc2c(c([N+](=O)[O-])c1)NC(c1ccc(Br)cc1)C1CC=CC21 (stereo unspecified)
  FPR: i

CCOCCOC(=O)C1=C(C)NC2=C(C(=O)C(C(=O)OC)C(C)C2)C1c1ccc(Cl)cc1 (stereo unspecified)
  FPR: 10.0

COc1cc(C2C(C(=O)OC3CCCC3)=C(C)NC3=C2C(=O)CCC3)c([N+](=O)[O-])cc1OC (stereo unspecified)
  FPR: 25.1

CCOC(=O)c1cc2c(=O)n3ccccc3nc2n(CC(C)C)c1=NC(=O)CCc1ccccc1
  FPR: i

CCCCCCc1cc2c3c(c(=O)oc2cc1OCC(C)=O)CCC3
  FPR: 5.4

CCN1CCN(Cc2c(O)ccc3c4c(c(=O)oc23)CCC4)CC1
  FPR: i

CC(C)Cn1cc(C(=O)NCc2ccc3c(c2)OCO3)c2c3ccccc3n(C)c2c1=O
  FPR: 6.2

CCCOCCOC(=O)C1=C(C)NC2=C(C(=O)C(C(=O)OC)C(C)C2)C1c1ccc(C)o1 (stereo unspecified)
  FPR: 53.7
